Screens from PubChem BioAssay.
MgrA-DNA mod: alters Staphylococcus aureus MgrA binding to DNA. fluorescence polarization. 0.13% of 84,000 active. AID 602314. inhibition, %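 (about 10 µg/mL by stock and volumes)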;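 active means above 50% in either of two replicates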;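 further: 0% = protein plus DNA without compound and 100% = DNA alone without protein; higher means less MgrA bound to DNA so lower polarization; one replicate is shown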
S aureus helic: blocks Staphylococcus aureus DNA helicase; purified S. aureus helicase, fluorescence unwinding assay; about half of the hits fall short of the stated cut; inhibition, %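 (tested at about 80 µM)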; 0.05% of 120,000 active; AID 485395;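 active means both duplicates at 50% or more, or one of them with a favoured structure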;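 further: 0% = mean of negative control wells and 100% = mean of positive control wells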
The depositor's hits bear a star; x = not tested or not shown.

Fields: MgrA-DNA mod, S aureus helic
Cc1nn(S(=O)(=O)c2ccc(Cl)cc2)cc1-c1ccccc1
 : -1.5, x
CCC(C)(C)c1ccc(OCCCC(=O)Nc2ccc(Cl)c(N3C(=O)C4C5C=CC(C5)C4C3=O)c2)c(C(C)(C)CC)c1 (configuration not stated)
 : 0.8, x
CCOc1ccc(NC2=NCCC2)cc1
 : x, 19.0
CC(Sc1nnc(C(C)(C)C)n1N)C(=O)Nc1ccc(Oc2ccccc2)cc1 (configuration not stated)
 : x, 14.0
CCOC(=O)N1CCC(NC(=O)C2CCCN2C(=O)OCc2ccccc2)CC1 (configuration not stated)
 : x, 10.0
CCCCNc1ccc2nnc(CCNC(=O)c3ccccc3)n2n1
 : x, -3.0
CCc1noc(C)c1C(=O)NCc1ccc2c(c1)OCO2
 : x, 8.0
Cc1csc2c(N(C)CCO)ncnc12
 : -1.9, x
COc1ccc(NC(=S)N(Cc2c(C)noc2C)c2ccccc2)cc1
 : x, -7.0
O=C(O)C1CC=CCC1C(=O)NCc1cccnc1 (configuration not stated)
 : -4.0, 10.0
O=C(NCc1ccco1)c1ccc(COCC(F)(F)F)cc1
 : -1.1, 2.0
FC(F)(F)c1cccc(N=C=S)c1
 : x, 19.0
Cc1ccc(Cn2cc[nH]c(=O)c2=O)cc1
 : x, -20.0
CC(C)(C)CNC(=S)NN
 : x, 2.0
CN(C/C(O)=C(\C#N)c1nc2ccccc2s1)C1CCCCC1
 : 2.0, -4.0
C=CCn1cc(C=C2C(=O)OC3(CCCC3)OC2=O)c2ccccc21
 : 4.7, -26.0
Cc1ccc2c(CSCc3cc(=O)n4c(C)csc4n3)cc(=O)oc2c1
 : x, 12.0
O=C(N/N=C/c1ccc(N2CCOCC2)cc1)c1cccs1
 : x, 7.0
CCc1ccc(NC(=O)N2CCC(N(C)C(C)C)CC2)cc1
 : -1.9, -2.0
CC(NS(=O)(=O)c1ccc(C(C)(C)C)cc1)C1C2CC3CC(C2)CC1C3 (configuration not stated)
 : -0.9, 11.0
Cn1c2ccc(F)cc2c2n[nH]c(=S)nc21
 : x, 13.0
CCc1ccnc(NC(=O)c2ccccc2)c1
 : -3.2, x
COc1ccc(SCC(=O)NCc2ccc3c(c2)OCO3)cc1
 : 0.2, x
O=C(N/N=C/c1ccc(O)cc1)c1ccccc1
 : x, 22.0
CN(CCOc1ccc(Cl)cc1)CN1C(=O)C2CC=CCC2C1=O (configuration not stated)
 : x, -7.0
CSc1ccccc1C(=O)Nc1cccc(C(C)O)c1 (configuration not stated)
 : -2.0, 13.0
CC(NS(=O)(=O)c1ccc(Cl)cc1)C(=O)O (configuration not stated)
 : -3.4, 13.0
Cc1ccccc1C(=O)OC(C)CN1CCCCC1 (configuration not stated)
 : -4.5, -5.0
CCC/C(O)=C1/C(=O)CC(c2ccccc2)CC1=NC(C)C(=O)O (configuration not stated)
 : x, 4.0
CC1O[C@]2(C)OC1[C@]1(C)OC(C)[C@H]2O1 (some centres not stated)
 : x, 21.0
COc1ccc(OC)c(NC(=O)CCN2CCC(C)CC2)c1
 : 1.1, 6.0
COC(=O)/C(=C\Nc1ccc(Sc2ccc(Cl)cc2)nc1)NC(=O)c1ccccc1
 : -1.8, x
Cc1cc2c(cc1C)CSC(c1ccccc1)SC2
 : -0.7, x
CN1C(C/C(=N\NC(N)=O)c2ccccc2)CCCC1CC(O)c1ccccc1 (configuration not stated)
 : x, -5.0
CCOC(=O)C(C=Nc1ccc(Cl)cc1Cl)C(C)=O (configuration not stated)
 : 1.6, x
O=C(CCC(=O)Nc1nc(-c2cc3ccccc3oc2=O)cs1)NCc1ccco1
 : 1.4, 7.0
CCCn1c(-c2ccc(S(=O)(=O)N3CCOCC3)cc2)csc1=Nc1ccccc1
 : -0.5, 2.0
Cc1ccc(N2C(=O)CSC2c2ccc(Cl)c(Cl)c2)cc1Cl (configuration not stated)
 : 0.7, x
O=C(c1cc2n(n1)CCCN(Cc1ccccc1)C2=O)N1CCCCCC1
 : x, -2.0
CC(=O)NCc1ccccc1S(=O)c1ccccc1C(=O)O (configuration not stated)
 : -2.5, x
O=C(C1CC1)N1N=C(C2CCCCC2)CC1(O)C(F)(F)F (configuration not stated)
 : -0.3, 6.0
O=C(CSc1nc2ccccc2o1)N1N=CCC1c1ccccc1 (configuration not stated)
 : 1.6, -5.0
COc1ccc(NC(=O)C(C)NC(=O)c2ccco2)cc1NS(=O)(=O)c1ccc(F)cc1 (configuration not stated)
 : x, -8.0
O=C(Nc1ccc2ccccc2n1)c1cc(Cl)sc1Cl
 : -2.5, x
FC(F)(F)c1nn2cc(-c3ccccc3)nc2s1
 : -2.7, x
COCC(C)NC(N)=O (configuration not stated)
 : x, -5.0
N#CCCn1cc(/C=N/NC(=O)C23CC4CC(CC(C4)C2)C3)c(-c2ccccc2)n1
 : x, 8.0
Cc1ccc(-c2ocnc2C(=O)Nc2ccccc2NC(=O)c2ccccn2)cc1
 : -1.3, 0.0
CCCc1ccc(-c2nc(CS(=O)(=O)C(C)(C)C)no2)cc1
 : 1.7, x
Cc1nn(C)c(C)c1NC(=S)Nc1ccc(S(=O)(=O)Nc2ncccn2)cc1
 : 1.2, 10.0
Cc1nc(CC(=O)NN)cs1
 : x, 1.0
CC1=C2C(N)=C(C(=O)Nc3ccccc3)SC2NC(C(F)(F)F)=C1 (configuration not stated)
 : 25.6, 2.0
O=C(O)CCc1n[nH]c2c1CCCC2
 : -4.1, -2.0
Cc1onc(-c2ccccc2)c1C(=O)NNc1ccc(C(C)(C)C)cc1
 : x, -17.0
Cc1cc(C(=O)COC(=O)C2COc3ccccc3O2)c(C)n1-c1cccc(S(=O)(=O)N2CCOCC2)c1 (configuration not stated)
 : x, 7.0
COCc1c(C(=O)N2CCN(S(=O)(=O)c3cccs3)CC2)oc2ccccc12
 : x, 4.0
COc1cccc2c1NC(c1cccc3ccccc13)C1CC=CC21 (configuration not stated)
 : -1.4, x
CC(=O)Nc1cccc(-c2cn3cccc(C)c3n2)c1
 : x, 5.0
Cc1ccc(C)c(N(C)C(=O)CCS(=O)(=O)c2cccc3nonc23)c1
 : 0.0, 16.0
COc1cc2[nH]c(=O)n(CCC(=O)N3CCN(c4cccc(C(F)(F)F)c4)CC3)c(=O)c2cc1OC
 : x, -28.0

Continuation.
Fields: MgrA-DNA mod, S aureus helic
CN(CC1CCCO1)S(=O)(=O)c1ccc(C(=O)Nc2sccc2C(N)=O)cc1 (configuration not stated)
 : x, 11.0
c1ccc(CSc2nn3cnnc3s2)cc1
 : 0.1, 0.0
CSCCC1C(C#N)=C(N)Oc2n[nH]c(-c3cccs3)c21 (configuration not stated)
 : x, 10.0
C=CCN1C(=O)N(c2cccc(C)c2)C(=O)C1CC(=O)Nc1cc(OC)cc(OC)c1 (configuration not stated)
 : x, 15.0
N#Cc1ncoc1-c1ccccc1Cl
 : -0.6, x
Cc1ccc(NC(=O)c2ccc(CSc3ccccn3)cc2)c(C)c1
 : 2.9, 3.0
O=C1CC(c2ccccc2)CC(=O)C1=CN1CCCC1 (configuration not stated)
 : x, -13.0
O=C(CSc1ccc(Cl)cc1)Nc1cscc1S(=O)(=O)c1ccc(Cl)cc1
 : -2.8, x
CC(c1nnc(SCC(=O)N2CC(=O)Nc3ccccc32)n1Cc1ccccc1)N(C)C (configuration not stated)
 : x, -10.0
CN1CCN(C(=O)C2CCCN(S(=O)(=O)c3ccc(Br)cc3)C2)CC1 (configuration not stated)
 : -0.5, 2.0
CC1(C)CCc2cc(-c3ccnc(=S)[nH]3)ccc2O1
 : 2.9, x
Nc1nc(N)c(Cc2ccccc2)cc1Cc1ccccc1
 : -1.6, x
CC1(C)c2ssc(=S)c2-c2ccccc2N1C(=O)CSC#N
 : -2.1, 15.0
COC(=O)C1=CNC=C(C(=O)OC)C1c1ccccc1C
 : x, 20.0
O=C(/C=C/c1cccc(C(F)(F)F)c1)NCc1cn2ccccc2n1
 : -2.0, 14.0
CCOC(=O)c1noc(C)c1-c1csc(N)n1
 : -2.8, x
Cc1ccc(NC(=O)CC(NCCC2=CCCCC2)C(=O)O)c(C)c1 (configuration not stated)
 : x, -22.0
O=C(c1ccc(Cl)cc1)c1c[nH]c2ccccc2c1=O
 : x, 14.0
COc1ccc(C(=O)n2c(-c3ccco3)nc3ccccc32)cc1
 : x, -19.0
O=C(CSc1nccc(-c2cccnc2)n1)Nc1ccccc1
 : x, -5.0
Cc1c(C)c(C)c(S(=O)(=O)NCCCN2CCOCC2)c(C)c1C
 : 5.2, x
O=C(NN1C(=O)c2ccccc2NC1c1cccnc1)c1ccccc1 (configuration not stated)
 : x, 12.0
CCOC(=O)C1=C(C)NC(SC(C)=O)=NC1c1ccc(OC(C)=O)c(OC)c1 (configuration not stated)
 : -0.4, 9.0
CCn1c(NC(=O)c2ccccc2)nc2ccccc21
 : 3.4, 8.0
CC(=O)NC(C)c1ccc(-c2csc(N)n2)cc1 (configuration not stated)
 : x, 9.0
CCN1C(=O)/C(=C2/Sc3ccccc3N2CC)SC1=S
 : x, -23.0
CN(C)C(=O)Cn1c(SCC(=O)NC2CCCCC2)nc2ccccc21
 : -0.4, 1.0
Nc1ccccc1C(=O)NNC(=O)c1ccc(Cl)cc1
 : -0.6, x
Cc1ccc(-c2cc(NC(=O)CC(C)C)on2)cc1
 : x, -11.0
Cc1cc(-c2ccccc2)cc(-c2ccccc2)[o+]1
 : 2.1, 9.0
CCOC(=O)c1cnc2nc(NCc3ccc(Cl)cc3)[nH]n2c1=O
 : 1.4, 1.0
CC(C)(C)c1ccc(C(=O)O)cc1[N+](=O)[O-]
 : -2.4, x
CCc1oc2cc(O)ccc2c(=O)c1-c1nc2ccccc2n1C
 : x, -5.0
CC1(C)N([O-])c2ccccc2[N+]1=O
 : x, 40.0
Cc1cc(C)n(CCCNC(=O)CCc2ccc(S(=O)(=O)N3CCOCC3)cc2)n1
 : x, 10.0
CSc1scc(-c2cccs2)c1C#N
 : -0.5, x
Cc1cc(CNC(C)c2ccco2)c(C)n1-c1ccnn1C(C)C (configuration not stated)
 : x, -8.0
COc1ccccc1NCc1ccccc1O
 : x, -6.0
O=C(NC1CCCC1)c1ccc(N2CCOc3ccccc32)s1
 : x, 23.0
CCOc1cc(S(=O)(=O)N(C)C2CCCCC2)c(OCC)cc1-n1cnnn1
 : 0.8, 8.0
c1ccc2c3c([nH]c2c1)-c1ccsc1CC3
 : x, -1.0
Cc1c(S(=O)(=O)N(C)c2ccccc2)sc2ccc(Cl)cc12
 : -1.1, x
FC(F)(F)c1ccc(N2CCCCCC2)nc1
 : 0.4, 15.0
C(=Nc1cccc(N=Cc2ccsc2)c1)c1ccsc1
 : -1.2, -15.0
CN1CCN(c2ccc(CNC(=O)c3ccc4nsnc4c3)cc2)CC1
 : 4.5, x
CCOC(=O)c1ccsc1NC(=O)CC
 : x, 7.0
COc1ccc(/C=C2/C(=N)N3C(SC)=NSC3=NC2=O)cc1
 : x, 37.0
NC(=O)NC(CC(=O)O)c1ccc(Cl)cc1 (configuration not stated)
 : x, 26.0
COCCn1c(C)cc(C(=O)CSc2nnc(C)s2)c1C
 : 3.9, 17.0
NC(=O)c1cc2cc(Cl)cc(Cl)c2oc1=Nc1ccc(C(F)(F)F)cc1
 : -1.0, x
COc1ccc(COC(=O)c2cc(O)c3ccccc3c2O)cc1F
 : x, 3.0
CC(C)(C)c1cc(C(F)(F)F)c2c(=O)n(-c3ccccc3)[nH]c2n1
 : 1.2, 21.0
Cc1ccccc1N1C(=O)C(O)C(O)C1=O (configuration not stated)
 : x, 10.0
O=C(NC1C2CC3CC(C2)CC1C3)c1cccnc1 (configuration not stated)
 : 1.1, -2.0
CCc1c(CN2CCCCC2)csc1C
 : x, 26.0
CC(C)(C)c1ccc2c(c1)CN(C(C)(C)C)CO2
 : -3.9, 6.0
N#Cc1ccc(-c2ccc(Oc3ncccn3)cc2)cc1
 : x, 2.0
CCCn1c(=S)[nH]c2c1c(=O)[nH]c(=O)n2C
 : -1.0, 5.0
Cc1nc(NCC2CCCO2)c2c3c(sc2n1)CCC3 (configuration not stated)
 : -5.2, 13.0
CC1CN(S(=O)(=O)c2ccc3c4c(cccc24)C(=O)N3)CC(C)O1 (configuration not stated)
 : 0.2, 16.0
O=C(CCOc1ccccc1F)Nc1ccc2c(c1)OCO2
 : x, -2.0
N#Cc1cc2c(=O)c3ccccc3oc2nc1-c1cc2ccccc2o1
 : x, -6.0
CSc1ncccc1C(=O)OCC(=O)N1CCCc2ccccc21
 : x, -7.0

Profiles, looked up by structure. Values in the order: MgrA-DNA mod	S aureus helic
`CCOC(=O)c1ccsc1NC(=O)CC` is entered as x	7.0
`O=C(CCOc1ccccc1F)Nc1ccc2c(c1)OCO2` is entered as x	-2.0

Five compounds from above, sorted by length of the SMILES, falling:
Fields: MgrA-DNA mod, S aureus helic
CCN1C(=O)/C(=C2/Sc3ccccc3N2CC)SC1=S
 : x, -23.0
O=C1CC(c2ccccc2)CC(=O)C1=CN1CCCC1 (configuration not stated)
 : x, -13.0
CCOC(=O)c1noc(C)c1-c1csc(N)n1
 : -2.8, x
c1ccc(CSc2nn3cnnc3s2)cc1
 : 0.1, 0.0
CCOC(=O)c1ccsc1NC(=O)CC
 : x, 7.0

Looked up above:
In S aureus helic, `CCc1oc2cc(O)ccc2c(=O)c1-c1nc2ccccc2n1C` has -5.0
In S aureus helic, `CCOC(=O)c1ccsc1NC(=O)CC` has 7.0
In MgrA-DNA mod, `CSc1scc(-c2cccs2)c1C#N` has -0.5
In S aureus helic, `CSc1ncccc1C(=O)OCC(=O)N1CCCc2ccccc21` has -7.0
In S aureus helic, `Cc1cc(CNC(C)c2ccco2)c(C)n1-c1ccnn1C(C)C` (configuration not stated) has -8.0

These rows are one share of the data (hit frequency here may not be typical).
